Compound activity: PubChem, several laboratories
Hsc70: small molecules displacing fluorescent ligand from Hsc70 – biochemical, fluorescence polarization, primary screen (AID 568) | Hsc70 fluorescence polarization, probe displacement; higher % means a stronger effect; strong numbers were not always called active | displacement, % at 20 µM, or IC50 in µM where a hit was titrated | 83,000 tested, under 10 active;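 active means displacement above 50% without optical interference and an IC50 on retest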;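 further: ATPase domain with a fluorescein-tagged ATP probe; 0% = vehicle and 100% = excess ADP; read after one hour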
MT1-MMP reporter: inhibitors of MT1-MMP promoter transcription, cell-based, luciferase reporter, luminescence (AID 618) | MT1-MMP promoter luciferase reporter cells, luminescence | calls from a first round at 10 µM; hits with a dose series show EC50 in µM | hit rate 0.62% among 87,000;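 active means over half of the reporter light lost at 10 µM or EC50 under 50 µM; inactive means the rest and hits that failed the dose series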;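 further: actives suppress MT1-MMP promoter-driven transcription so potencies describe inhibitors; HT1080 fibrosarcoma cells; overnight exposure; toxic or luciferase-blocking compounds were not removed from the actives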
WNV NS2B-NS3 inh: inhibitors of West Nile virus NS2B-NS3 protease | P06935 | WNV NS2B-NS3 protease, fluorogenic substrate Ex360/Em465; active compounds read low | z-score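 (tested at a level between 10 and 100 µM)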 | hit rate 0.18% among 65,000 | AID 577;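 active means z-score at -3 or under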;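 further: score is relative to mean and spread of the compound wells of a plate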
Target sequence (P06935 1371-1501 limits assumed): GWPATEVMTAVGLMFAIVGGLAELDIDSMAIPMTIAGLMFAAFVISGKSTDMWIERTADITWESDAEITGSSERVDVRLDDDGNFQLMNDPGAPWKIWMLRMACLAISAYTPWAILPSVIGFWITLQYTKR
Target sequence (P06935 1502-1679 limits assumed): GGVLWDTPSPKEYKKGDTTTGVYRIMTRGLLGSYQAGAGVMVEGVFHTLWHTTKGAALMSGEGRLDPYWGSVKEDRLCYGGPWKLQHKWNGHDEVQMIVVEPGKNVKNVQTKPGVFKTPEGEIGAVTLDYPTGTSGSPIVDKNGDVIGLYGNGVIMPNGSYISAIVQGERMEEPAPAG
* = called active by the depositor; i = inactive; · = not tested or not shown; + = active, no number.

SMILES | Hsc70 | MT1-MMP reporter | WNV NS2B-NS3 inh
O=C(Nc1ccc(OC(F)F)c(Cl)c1)Nc1ccc2c(c1)OCO2 | 4.7% | i | 0.45
O=C(CSc1ncnc2ccccc12)N1CCN(c2ccccc2)CC1 | 0.8% | i | 0.36
COc1ccc(NC(=O)c2cc3cc(OC)ccc3oc2=N)cc1 | -2.3% | i | -0.31
Cc1ccc2nc3c(cc(C#N)c(=O)n3CC3CCCO3)c(=O)n2c1 (stereo unspecified) | -3.5% | i | 4.27
COc1ccccc1OCc1nnc(SCC(=O)Nc2ccc(C)cc2)n1C | 2.0% | i | -1.16
c1ccc(-c2nc3ccccn3c2NCc2ccc3c(c2)OCO3)cc1 | -0.5% | i | ·
CCn1c2ccccc2c2cc(NC(=O)CSc3nnc(-c4ccccc4OC)n3N)ccc21 | 0.8% | i | -0.95
CCc1ccc(-c2nc(CN3CCC(C(=O)NCc4ccco4)CC3)c(C)o2)cc1 | -4.2% | i | 0.18
O=C(Nc1cccc(S(=O)(=O)C(F)F)c1)c1ccc(Cl)c(S(=O)(=O)N2CCOCC2)c1 | 0.2% | i | -0.7
CCc1c(C)nc2cc(-c3cc(OC)cc(OC)c3)nn2c1N1CCN(CCN2CCOCC2)CC1 | -2.2% | i | ·
CCCCN(Cc1cc2cc(OC)ccc2[nH]c1=O)C(=O)COc1ccccc1 | 0.2% | i | -0.29
Cc1ccc(CC(=O)Nc2ccccc2N2CCOCC2)cc1C | -0.4% | i | ·
COc1ccc(-c2oc(NC(=O)CSc3ncn[nH]3)c(C#N)c2-c2ccc(OC)cc2)cc1 | -2.0% | i | ·
COc1cccc(/C=N/NC(=O)CCc2c(C)n[nH]c2C)c1 | -3.1% | i | ·
Cc1nc(NS(=O)(=O)c2ccccc2)sc1NC(=O)OC(C)C | 0.5% | i | 0.01
O=C(OCC(=O)N1CCN(C(=O)c2ccco2)CC1)c1cc(-c2ccccc2)nc2ccccc12 | -0.4% | i | 0.38
Cc1ccnc(N2CCC(C(=O)Nc3cccc(C(F)(F)F)c3)CC2)n1 | 0.1% | i | -0.24
c1ccc(Cc2nn3c(Cn4nnc5ccccc54)nnc3s2)cc1 | -5.1% | i | -0.5
CC/C(=N\NS(C)(=O)=O)c1ccccc1 | 3.5% | i | ·
COC(=O)c1cccc(C(=O)Nc2ccc(C)cc2Br)n1 | -0.7% | i | 0.74
CN(C)c1nc2ccc(OCCN3CCCCC3)cc2s1 | 0.0% | i | 0.00153
CN1CCN(CCCNC(=O)Nc2cccc3ccccc23)CC1 | 2.4% | i | 2.1
CCN(CC)S(=O)(=O)c1ccc(Oc2ccccc2)cc1 | -0.9% | i | ·
CN(C)c1ccc(C=Nc2cnn(C)c2C(N)=O)cc1 | -2.5% | i | 0.34
CCOC(=O)c1[nH]c(C)c(C(=O)N2CCc3ccccc32)c1C | -8.1% | + | -0.03

(list continues)
SMILES | Hsc70 | MT1-MMP reporter | WNV NS2B-NS3 inh
O=c1cc(C(F)F)oc2c1ccc1ccccc12 | -0.2% | i | -0.57
C(=N\c1nc2ccccc2n1CCN1CCCCC1)/c1cccs1 | -1.9% | i | -0.1
Cc1ccc(C)c(N2CCN(C(=O)c3cc4ccccn4n3)CC2)c1 | 13.1% | i | 0.4
CCOC(=O)c1ccc(Nc2nc(C(=O)OCC)nc3ccccc23)cc1 | -2.2% | i | ·
CC(C)C(=O)Nc1ccc(C(=O)N2CCCCCC2)cc1 | 5.9% | i | ·
Cc1ccc(S(=O)(=O)Cc2ccc(C(=O)N3CCN(Cc4ccccc4)CC3)o2)cc1 | 3.9% | i | -0.9
COc1ccccc1OCc1nc(Cc2ccc(Cl)cc2)no1 | -0.3% | i | -0.08
Cc1occc1-c1nnc(SCC(=O)N2CCOCC2)n1Cc1ccco1 | -1.7% | i | -0.19
CC(=O)c1c(N)n(C)c(=O)n(C)c1=O | 3.7% | i | -0.9
CCc1[nH]nc2c1C(c1cccnc1)C(C#N)=C(N)O2 (stereo unspecified) | 0.1% | i | -0.94
COc1ccc(NC(C)=O)cc1NC(=O)CN1CCN(CC(=O)Nc2ccc(Cl)cc2)CC1 | -1.0% | i | 0.83
CCOc1ccc(NC(=O)CSc2n[nH]c(=O)n2-c2ccccc2)cc1 | -1.0% | i | -0.18
COc1ccc(NS(=O)(=O)c2cccc(C(=O)O)c2)cc1 | 1.0% | i | -0.01
CCOC(=O)c1cc(CC)sc1NC(=O)COC | -0.5% | i | -0.41
Cc1nn(-c2ccccc2)c2c1C(c1ccncc1)C(C#N)=C(N)O2 (stereo unspecified) | -4.0% | i | -0.3
CCN(CC)c1ccc(C2C(C(=O)Nc3ccccn3)=C(C)NC3=C2C(=O)CC(C)(C)C3)cc1 (stereo unspecified) | -0.5% | i | 2.01
OCCNc1nc2ccccc2n1-c1ncnc2sc3c(c12)CCC3 | -2.1% | i | ·
CCOC(=O)c1c(O)c2c([nH]c1=O)CCCC2 | -2.9% | i | ·
Cc1ccc(-n2c(SCC(=O)Nc3nccs3)nc3c(c2=O)SCC3)cc1 | -0.1% | i | 0.16
COC(=O)c1ccc2c(c1)nc(C)n2CCO | 4.0% | i | -0.52
CCOC(=O)c1sc(=NC(=O)c2ccc(OC)c(OC)c2)n(C)c1C | 2.8% | i | -0.34
Cc1cccc(Nc2ccccc2C(=O)OCC(=O)N2CCOCC2)c1C | 1.3% | i | -1.38
OC1(c2cccc(C(F)(F)F)c2)CCN(c2ccc(-c3ccccc3)nn2)CC1 | -7.4% | i | -0.96
CC(=O)N1CCc2cc(Br)cc(S(=O)(=O)NCC3CCCO3)c21 (stereo unspecified) | -1.6% | i | 1.92
COc1ccc(NS(=O)(=O)c2ccc3oc(SC4CCOC4=O)nc3c2)cc1 (stereo unspecified) | 5.4% | i | ·

Full records as entered above. Values in the order: Hsc70, MT1-MMP reporter, WNV NS2B-NS3 inh
Shown for CCOc1ccc(NC(=O)CSc2n[nH]c(=O)n2-c2ccccc2)cc1 : -1.0%, i, -0.18
Shown for COC(=O)c1ccc2c(c1)nc(C)n2CCO : 4.0%, i, -0.52

Next part
SMILES | Hsc70 | MT1-MMP reporter | WNV NS2B-NS3 inh
O=C1Cc2ccccc2N1c1c(Cl)cccc1Cl | -2.4% | i | ·
O=C(Nc1ccc(N2CCN(C(=O)c3ccco3)CC2)c(Cl)c1)c1c(F)c(F)c(F)c(F)c1F | 1.9% | i | -0.8
C=C(C)c1cccc(C(C)(C)NC(=O)N2CC(C)OC(C)C2)c1 (stereo unspecified) | -1.7% | i | -0.35
N#Cc1cccc(-c2cn(S(=O)(=O)c3ccc(Cl)cc3)nc2N)c1 | -5.7% | i | -0.3
CCN(CC)C(=O)COc1cc(C)c(Cl)c(C)c1 | 0.1% | i | ·
COc1ccc(-c2nnc3n2N=C(C)CS3)cc1 | -4.8% | i | ·
CCCOc1ccc(C(=O)Nc2ccc(N3CCN(C(C)=O)CC3)cc2)cc1 | 0.0% | i | 0.08
COC(=O)Cn1c(C)c(C(C)=O)c(C(C)=O)c1C | -5.6% | i | -1.06
COc1c(C)cc(Br)cc1C(=O)Nc1ccc(N2CCN(S(C)(=O)=O)CC2)cc1 | -1.5% | i | 0.27
CC1(C)CC(=O)C(C=NCCc2ccc(O)cc2)=C(O)C1 | 5.5% | i | 0.58
CCn1nnc(NC(=O)c2cccc(-c3cc4ccccc4oc3=O)c2)n1 | 0.2% | i | -0.23
O=C(NCc1ccco1)c1nc2ccccc2s1 | -2.3% | i | -1.56
CNC(=O)N(c1ccccc1)c1ccccc1 | 0.3% | i | 1.58
Cc1nnc(NC(=O)c2cccc(S(=O)(=O)N3CCOCC3)c2)s1 | 8.4% | i | ·
COc1cc(NC(=O)Cn2nnc(-c3ccncc3)n2)cc(OC)c1 | -4.1% | i | -0.05
COC(=O)c1cc(OC)c(OC)cc1NC(=O)c1cc(C)on1 | 0.1% | i | -0.95
N#CC1=C(SCc2ccccc2)NC(=O)CC1c1cccc(O)c1 (stereo unspecified) | -3.1% | i | -0.14
COc1ccc(CNC(=O)CN(c2cc(C)cc(C)c2)S(=O)(=O)c2c(C)noc2C)cc1 | -2.9% | i | 0.26
CC(=O)NC1CSCC1OC(C)=O (stereo unspecified) | 5.4% | i | 0.13
CC1=C(C(=O)Nc2ccc(F)cc2)C(c2cccc(C)c2)n2nc(CCCO)nc2N1 (stereo unspecified) | -2.8% | i | -0.29
CCCCN=CC1=C(O)C(C(=O)OC)C(C)(C)CC1=O (stereo unspecified) | -1.6% | i | 0.82
CCOC(=O)c1sc2nc(C(C)C)c3c(c2c1N)CC(C)(C)OC3 | 4.2% | i | ·
CC(C)(C)c1ccc(Cn2nnc3c(=O)[nH]c(C4CCCN(C(=O)Cc5cccs5)C4)nc32)cc1 (stereo unspecified) | -8.3% | i | -0.97
CC(C(=O)NC1CCCC1)N(Cc1ccco1)C(=O)c1snc(C(=O)NC2CCCC2)c1N (stereo unspecified) | 0.9% | i | -0.26
CCOC(=O)N1CCN(C(=O)CCc2c(C)nc3c(c(C)nn3-c3ccc(C)c(C)c3)c2C)CC1 | -7.9% | i | 0.45

(further entries)
SMILES | Hsc70 | MT1-MMP reporter | WNV NS2B-NS3 inh
O=C(Nc1nnc(-c2ccccc2)o1)Nc1ccccc1Cl | 0.5% | i | 0.61
COc1cc(CNC(C)c2ccccc2)c(Br)cc1OCC(N)=O (stereo unspecified) | -1.2% | i | ·
CCn1c(=O)cc(OCC(=O)Nc2ccccc2N2CCN(C)CC2)c2ccccc21 | 0.1% | i | 0.61
O=c1c2ccccc2[nH]c(=S)n1CCN1CCN(Cc2ccccc2)CC1 | 1.0% | i | -0.73
Cc1cc(NC(=O)C2CCCN(S(=O)(=O)c3c(C)noc3C)C2)no1 (stereo unspecified) | -1.5% | i | 0.3
COc1ccc(OC)c2c1CCC2=O | -2.0% | i | 0.24
CN(C)S(=O)(=O)c1cccc(C(=O)OCC(=O)Nc2ccccc2OC(F)F)c1 | 6.2% | i | -1.54
O=C(C1=C(O)C(=O)N(CC2CCCO2)C1c1cccnc1)c1ccco1 (stereo unspecified) | 7.3% | i | -1.36
Cc1cc(C)n(CC2CC(=O)N(c3cc(Cl)cc(Cl)c3)C2=O)n1 (stereo unspecified) | 5.0% | i | 0.68
COc1ccc(C(=O)C(CN2CCOCC2)c2ccccc2)cc1F (stereo unspecified) | 5.8% | i | -0.02
COc1cc(C(=O)NCC(c2ccco2)N2CCCC2)ccc1OCc1c(C)noc1C (stereo unspecified) | 5.1% | i | -0.38
Cc1onc(-c2ccccc2)c1C(=O)Nc1ccc(OC(C)C)cc1 | 2.0% | i | 0.12
CC1(N2CCCCC2)CC2(O)C(=[N+]1[O-])CCC/C2=N\O (stereo unspecified) | -5.9% | i | -0.6
Cc1ccc2cc(C#N)c(NCc3ccco3)nc2c1 | 0.9% | i | 0.71
CC1CCCC(C)N1Cc1cn2ccccc2n1 (stereo unspecified) | -3.9% | i | 1.32
CC(C(=O)NCc1ccc2c(c1)OCO2)N(c1ccccc1)S(C)(=O)=O (stereo unspecified) | -1.6% | i | -1.67
Cc1ccc(NC(=O)/C(C#N)=C/c2ccc(C)s2)c(C)c1 | -47.5% | i | ·
CCOC(=O)c1c(C)n(CCNC(C)=O)c2ccc(OC)cc12 | -0.3% | i | ·
CC1CCCC(C)N1CCNC(=O)Nc1ccc(Cl)cc1 (stereo unspecified) | 3.2% | i | ·
O=C(N1CCCCC1)C1(c2ccccc2)CCOCC1 | -2.0% | i | -0.99
CC(C)(C)Cc1nc(-c2ccccn2)no1 | 2.4% | i | -0.1
O=C(Nc1ccccc1C(=O)NCc1ccccc1)c1ccco1 | -15.7% | i | 0.05
COC(=O)CN(c1cccc(C(C)=O)c1)S(C)(=O)=O | 4.4% | i | -1.47
O=C(Nc1cccc(-c2nc3cc(Cl)ccc3o2)c1)C1CCCO1 (stereo unspecified) | -4.4% | i | 0.36
Cc1sc2nc(CN3CCCC3)nc(N3CCC(C(N)=O)CC3)c2c1C | -0.5% | i | ·
CC1CCCC(NC(=O)CSc2ncccc2C(=O)O)C1C (stereo unspecified) | -1.6% | i | 0.25
O=C(Cn1c(=O)[nH]c2ccsc2c1=O)N1CCN(c2ccc(F)cc2)CC1 | 7.9% | i | -0.24
COc1ccc(N(CC(=O)Nc2cccc(C(=O)O)c2)S(=O)(=O)c2c(C)noc2C)cc1 | 1.5% | i | 0.91
Cc1nnc(SCC(=O)Nc2ccc(S(=O)(=O)N3CCCC3)cc2)n1N | -11.6% | i | 0.36
CCC(=O)n1nc(-c2ccc(OC)cc2)nc1SC | 2.4% | i | ·

Reprinted at random: 7 compounds from above.
SMILES | Hsc70 | MT1-MMP reporter | WNV NS2B-NS3 inh
Cc1onc(-c2ccccc2)c1C(=O)Nc1ccc(OC(C)C)cc1 | 2.0% | i | 0.12
COc1ccc(OC)c2c1CCC2=O | -2.0% | i | 0.24
O=C(Nc1ccccc1C(=O)NCc1ccccc1)c1ccco1 | -15.7% | i | 0.05
COc1cc(C(=O)NCC(c2ccco2)N2CCCC2)ccc1OCc1c(C)noc1C (stereo unspecified) | 5.1% | i | -0.38
CC(C(=O)NCc1ccc2c(c1)OCO2)N(c1ccccc1)S(C)(=O)=O (stereo unspecified) | -1.6% | i | -1.67
Cc1ccc2cc(C#N)c(NCc3ccco3)nc2c1 | 0.9% | i | 0.71
CCC(=O)n1nc(-c2ccc(OC)cc2)nc1SC | 2.4% | i | ·

Only part of the results is shown; rates above refer to the full screens.
